Screens as filed in PubChem.
NPYLR7 agonist: activates Aedes aegypti NPYLR7 receptor; HEK293T NPYLR7/Galpha15, GCaMP6s calcium fluorescence; 270,000 compounds, 0.15% hits; activation, % at 10 µM; in the data active = activation above about 40%;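 also: 0% = vehicle and 100% = reference agonist at the receptor; some compounds past the cut are filed as inactive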
NPYLR7 agonist max-min: also measured in NPYLR7 agonist; calls as there; activation, %; measured here: Max-Min RFU normalised activation; some inactives read as strong as hits;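 span of the calcium signal over five minutes; 0% = vehicle and 100% = native peptide agonist; compound fluorescence can raise it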
Active calls of the source: *; & = joins results of further samples. Some of the compounds tested; count on the stated rates, not on these rows.

Structure,NPYLR7 agonist,NPYLR7 agonist max-min
O=C(COc1cccc2ccccc12)N(Cc1ccco1)C1CCS(=O)(=O)C1 (stereo not drawn),8,1
CC(C)(C)c1cc(N2CCN(C/C=C/c3ccccc3)CC2)nc(SCc2ccc(C(=O)N3CCCC3)cc2)n1,11,14
CC(C)C(CNC(=O)CCC1CCCC1)c1cccnc1 (stereo not drawn),8,8
O=c1[nH]c2sc3c(c2c2ncnn12)CCCC3,-2,-8
CC(C)c1nc(N2CCN(Cc3ccc(-n4ccnc4)cc3)CC2)no1,-1,-3
N#Cc1cccc(N=c2oc3ccccc3cc2-c2nc3ccccc3[nH]2)c1,-4,-10
O=C(c1ccco1)N1CCC(NS(=O)(=O)c2cccc(F)c2)CC1,0,1
Cc1cc(N2CCCC2)ccc1NC(=O)Cn1cc(Cl)cn1,1,3
CCN1CCN(C(c2ccco2)C2Sc3nc(-c4ccco4)nn3C2=O)CC1 (stereo not drawn),1,2
O=C(CCc1cnccn1)N1CCOC(c2ccc(Cl)c(Cl)c2)C1 (stereo not drawn),4,0
CNC(=O)CNC(=O)c1nn(-c2ccccc2)c(=O)c2ccccc12,1,7
CCCCCc1ccc(C(=O)Nc2cccc(C3NC(=S)N(CC)C(C)=C3C(=O)OCC)c2)cc1 (stereo not drawn),-2,6
C=CCOC(=O)c1ccccc1C(=O)OCC(F)(F)C(F)F,-17,-21
Cc1c(C(=O)N(C)C(C)c2ccc(F)cc2)cnn1-c1ccccn1 (stereo not drawn),5,3
CCSc1nnc(NC(=O)c2cnn(-c3nc(C)cc(=O)[nH]3)c2C)s1,0,-2
COc1ccc(CNC(=O)c2cn[nH]c2NC(=O)C(C)SC)cc1 (stereo not drawn),-7,-7
Clc1ccc(C2CC(c3ccccc3)Nc3nnnn32)cc1 (stereo not drawn),2,0
Cc1cc2cc(C(=O)N3CCC(N4CCC(C(=O)NC(C)C)CC4)CC3)ccc2o1,6&3,3&1
CN(Cc1c(F)cccc1Cl)C(=O)Cn1c(=O)c(C#N)c2n(c1=O)CCC2,6,5
CCOC(=O)C1=C(C)NC(C)=C(C(=O)OCC)C1c1c(F)c(F)c(F)c(F)c1F,0,-1
O=C(c1cccs1)N1CCN(CN2C(=O)NC3(CCCCCC3)C2=O)CC1,2,1
O=S(=O)(c1cccs1)N1CCCC1c1ccccn1 (stereo not drawn),-1,0
Nc1ncnc(N2CCCCCC2)c1[N+](=O)[O-],4,11
Cc1ccsc1CN(C)Cn1nc(C)c2c(C)onc2c1=O,6,12
COc1ccc(-c2nc3ccccn3c2NC(=O)CCC2CCCC2)cc1OC,-4,1
CN(C)c1ccc(N2C(=O)CSC2c2ccc(NC(=O)/C=C/c3ccccc3)cc2)cc1 (stereo not drawn),8,16
O=C(Nc1c(-c2cccc(F)c2)nc2ccccn12)C1CCCCC1,-3,3
O=C(Nc1ccc2c(c1)CCO2)N(Cc1ccccc1)Cc1ccn[nH]1,4,2
COCc1nc(-c2ccc(CN3CCN(C(=O)c4ncc[nH]4)CC3)cc2)no1,8,18
Cc1ccsc1[C@@H]1CCN(Cc2cccc3[nH]ccc23)C[C@H]1O,12,8
O=S(=O)(CCC1CCCO1)N1CCCC(N2CCCCCC2)C1 (stereo not drawn),-2,-5
CN(Cc1ccsc1)C(=O)c1cc(COc2cccc3cccnc23)on1,-5,-7
COC(C)c1cccc(-c2cc(C(=O)O)cc(S(=O)(=O)NC(C)C)c2)c1 (stereo not drawn),3,3
C=CCN(CCOC)Cc1cccn1Cc1ccccc1,27,34
CC(=O)OCc1c(C)cc(C)c(CN(C)C(C)c2ccon2)c1C (stereo not drawn),-7,-10
COc1ccc(CC2CCN(S(=O)(=O)c3cc(F)ccc3C)CC2)cc1,1,3
CNC(=O)NC(=O)CN1C(=O)NC2(CCCCC2)C1=O,1,9
Cc1cccc(C)c1NC(=O)c1ccc(N(C)C)nc1,2,3
COc1cc(OC)cc(C(=O)Nc2cc(-c3ccc(OC)nn3)ccc2C)c1,1,15
COc1cccc(Cc2nsc(N3CCC(CNC(=O)c4ccc(Br)cc4)CC3)n2)c1,-1,11
CN(CCC#N)c1ccc(C2Nc3ccccc3C(=O)N2C)cc1 (stereo not drawn),0,0
CN1C(=O)CN(C2CCCCC2)C1=O,-1,4
O=C(Nc1nc(-c2ccc(Br)cc2)cs1)c1ccc(F)c(F)c1,-5,-11
Cc1ccc(-n2c(SCC(N)=O)nnc2N2CCCCC2)cc1,-5,-9
O=S(=O)(NCc1ccccc1)NCC1(c2cccc(F)c2)CCOCC1,5,3
CC(=O)Nc1ccc(F)c(NC(=O)CCn2nc(-c3cccs3)oc2=O)c1,14,8
CC(C)CNc1sc(S(C)(=O)=O)nc1S(=O)(=O)c1ccc(Cl)cc1,7,4
COCCNC(=O)C12CC3CC(C1)CC(C(=O)NCCOC)(C3)C2,5,6
COc1ccc(OC)c(C2CCCN2C(=O)c2cc(C)nc3c2c(C)nn3C)c1 (stereo not drawn),1,14
CCc1nc(SCC(=O)Nc2ccc(N3CCCCCC3)cc2)n[nH]1,-1,-1

(continued)
Structure,NPYLR7 agonist,NPYLR7 agonist max-min
CCn1c(SCC(=O)Nc2ccc(C)cc2C)nc2c(c1=O)SC(C)C2 (stereo not drawn),-7,-11
O=[N+]([O-])c1ccc(Cl)c(S(=O)(=O)Nc2ccc(SC(F)F)cc2)c1,-14,-22
CCN(Cc1cc(Cl)ccc1OC)C(=O)CN1CCOCC1,11,-1
Cc1ccc(C)n1-n1c(C)nc2scc(-c3cccs3)c2c1=O,-1,-2
O=C(Nc1ccc(F)cc1F)c1cccc(CN2[C@@H]3CC[C@H]2CC(O)C3)c1 (stereo partly drawn),-4,-3
C=CCN(CC(=O)N1CCc2sccc2C1COc1ccc(C)cc1C)S(=O)(=O)c1ccc(C)cc1 (stereo not drawn),-2,3
CN(Cc1ccc2nccnc2c1)Cc1c(C(=O)N(C)Cc2ccccc2)nc2ccccn12,5,3
OC(c1ccccc1)c1nc2ccc(Cl)cc2[nH]1 (stereo not drawn),6,5
CC(C)C1CN(C(=O)c2ccccn2)CCCN1CC1CC1 (stereo not drawn),9,8
COc1cc2c(cc1OC)C(c1ccccc1Cl)N(C(=O)Cc1cccs1)CC2 (stereo not drawn),1,6
C=c1ccccc1=c1[nH]/c(=C/c2ccccc2OCC)c(=O)o1,-2,-7
CN(C)c1cccc(C(=O)N2CCN(C)c3nc4ccccc4nc32)c1,14,8
CCNC(=O)C1(C)CCN1C/C=C/c1ccccc1 (stereo not drawn),4,2
COCCCN(Cc1ccc(OC)c(OC)c1)CC(C)(C)O,29,27
COc1ccc(NC(=O)NCCNc2cc(-n3cccn3)ncn2)cc1Cl,-12,-15
CN1C(=O)C(CCC(=O)Nc2cccnc2)(Cc2ccccc2)c2ccccc21 (stereo not drawn),6,0
Cc1cc(-n2cccn2)ccc1CN1CCOC(c2ccc(F)cc2)C1 (stereo not drawn),3,-1
CCOC(=O)C1=C(CC)NC2=C(C(=O)CC(C)(C)C2)C1c1ccc(OC)cc1OC (stereo not drawn),2,-3
COC(=O)c1cc(CNC2(C(F)(F)F)CCOCC2)c(C)o1,4,2
O=C1c2ccccc2C2(O)NC(=S)NC12O (stereo not drawn),-2,-3
COc1ccc(C(=O)Nc2ccc(C3SCC(=O)N3c3ccc(C)cc3C)cc2)cc1 (stereo not drawn),11,12
CN(C)CCN(CC1CCCCC1)C(=O)Nc1ccc(F)cc1F,1,2
CN(C)C(=O)CN1CCN(C(=O)CCC2(Cc3ccc(Cl)cc3)CCC(=O)N2)CC1 (stereo not drawn),-4,-3
Cc1cccc(NC(=O)CN2CCN(Cc3ccc4c(c3)CCO4)CC2)c1C,10,14
CN1CCN(C(=O)C2CCN(c3ccccc3)C2=O)CC1=O (stereo not drawn),-2,-5

Sorted by length of the SMILES (largest number first): 18 of the compounds above.
Structure,NPYLR7 agonist,NPYLR7 agonist max-min
C=CCN(CC(=O)N1CCc2sccc2C1COc1ccc(C)cc1C)S(=O)(=O)c1ccc(C)cc1 (stereo not drawn),-2,3
CCOC(=O)C1=C(CC)NC2=C(C(=O)CC(C)(C)C2)C1c1ccc(OC)cc1OC (stereo not drawn),2,-3
CN(Cc1ccc2nccnc2c1)Cc1c(C(=O)N(C)Cc2ccccc2)nc2ccccn12,5,3
O=[N+]([O-])c1ccc(Cl)c(S(=O)(=O)Nc2ccc(SC(F)F)cc2)c1,-14,-22
COc1ccc(C(=O)Nc2ccc(C3SCC(=O)N3c3ccc(C)cc3C)cc2)cc1 (stereo not drawn),11,12
CN1C(=O)C(CCC(=O)Nc2cccnc2)(Cc2ccccc2)c2ccccc21 (stereo not drawn),6,0
Cc1cccc(NC(=O)CN2CCN(Cc3ccc4c(c3)CCO4)CC2)c1C,10,14
CCn1c(SCC(=O)Nc2ccc(C)cc2C)nc2c(c1=O)SC(C)C2 (stereo not drawn),-7,-11
CN(C)c1cccc(C(=O)N2CCN(C)c3nc4ccccc4nc32)c1,14,8
C=c1ccccc1=c1[nH]/c(=C/c2ccccc2OCC)c(=O)o1,-2,-7
Cc1ccc(C)n1-n1c(C)nc2scc(-c3cccs3)c2c1=O,-1,-2
COC(=O)c1cc(CNC2(C(F)(F)F)CCOCC2)c(C)o1,4,2
CN1CCN(C(=O)C2CCN(c3ccccc3)C2=O)CC1=O (stereo not drawn),-2,-5
CC(C)C1CN(C(=O)c2ccccn2)CCCN1CC1CC1 (stereo not drawn),9,8
CCN(Cc1cc(Cl)ccc1OC)C(=O)CN1CCOCC1,11,-1
OC(c1ccccc1)c1nc2ccc(Cl)cc2[nH]1 (stereo not drawn),6,5
CCNC(=O)C1(C)CCN1C/C=C/c1ccccc1 (stereo not drawn),4,2
O=C1c2ccccc2C2(O)NC(=S)NC12O (stereo not drawn),-2,-3

(cont.)
Structure,NPYLR7 agonist,NPYLR7 agonist max-min
Nc1ncc(Br)s1,-4,-1
O=C(CN1C(=O)C(Oc2ccccc2)C1c1ccco1)NCCCN1CCCC1=O (stereo not drawn),6,5
O=C(CCNC(=O)NCc1ccccc1)NCCc1c[nH]c2ccccc12,3,-4
CC(C)NC(=O)COc1coc(CN2CCc3ccccc3C2)cc1=O,17,17
COc1ccc2c(c1)CCc1c-2noc1-c1ccc(NC(=O)COc2c(F)c(F)c(F)c(F)c2F)cc1,1,-3
N#Cc1cc(F)c(NCc2ccc(N3CCC(CO)CC3)nc2)c(F)c1,10,8
C=CCN=C(N)NC1CC1c1ccccc1 (stereo not drawn),-1,-3
Cc1cccc(-c2noc(CN3CCC(CN4CC(C)OC(C)C4)CC3)n2)c1 (stereo not drawn),-7,-7
C=c1occc1=C1NN=C(SC(C)C(=O)Nc2ccccc2F)O1 (stereo not drawn),-2,-4
Cc1nnc(SCCn2c(N3CCOCC3)nc3c2c(=O)[nH]c(=O)n3C)s1,1,14
Cc1ccc2c(c1)C1(SCCN1C(=O)c1ccc(Cl)cc1)C(=O)N2Cc1cccc(C#N)c1 (stereo not drawn),17,20
Cc1cc(C)c(S(=O)(=O)NCCOc2cc(N3CCCC3)ncn2)cc1C,1,0
COc1ccc(-n2c(SC(C)C(N)=O)nc3sc4c(c3c2=O)CCCS4)cc1 (stereo not drawn),1,1
CCc1cccc2c(C(CC(=O)NCCc3ccc(OC)c(OC)c3)c3ccccc3Cl)c[nH]c12 (stereo not drawn),0,-2
O=C(NCc1ccc2c(c1)OCO2)c1csc(CSc2nnc(Cc3ccccc3)n2-c2ccccc2)n1,8,13
Cc1cccc([N+](=O)[O-])c1C(=O)OCC(=O)c1ccc2c(c1)NC(=O)CO2,2,-1
COc1cccc(-c2nc(CC(=O)N3CCc4cc(OC)c(OC)cc4C3c3ccccc3)c(C)o2)c1 (stereo not drawn),5,11
Cc1ccc2c(c1)-c1ncc(C(=O)c3cc(Br)ccc3O)cc1CO2,1,-1
CC(=O)Nc1ccccc1SCC(=O)N1CCn2cccc2C1C (stereo not drawn),2,1
Cc1ncc2c(c1-c1noc(-c3cc(C4CC4)on3)n1)CCNC2,-6,-9
COc1ccc(C(NC(=O)C2CCN(Cc3cc(OC)cc(OC)c3)CC2)c2cccs2)cc1 (stereo not drawn),10,-2
Cc1cccc(CN(CCc2c[nH]c3ccccc23)Cc2nc(C(=O)NCc3ccncc3)co2)c1,-8,3
COc1ccc(Nc2nc(Cl)nc(Nc3ccc(OC)c(OC)c3)n2)cc1OC,8,1
COc1ccc(-c2nc(CN(C)Cc3cnc(N)nc3)c(C)o2)c(C)c1C,3,2
COc1ccccc1NC(=O)C1CC=CCC1C(=O)N1CCC(C#N)(c2ccccc2)CC1 (stereo not drawn),-10,-19

Three compounds from above, sorted by molar mass, descending.
Structure,NPYLR7 agonist,NPYLR7 agonist max-min
CCc1cccc2c(C(CC(=O)NCCc3ccc(OC)c(OC)c3)c3ccccc3Cl)c[nH]c12 (stereo not drawn),0,-2
COc1ccc(Nc2nc(Cl)nc(Nc3ccc(OC)c(OC)c3)n2)cc1OC,8,1
Cc1cc(C)c(S(=O)(=O)NCCOc2cc(N3CCCC3)ncn2)cc1C,1,0

(next part)
Structure,NPYLR7 agonist,NPYLR7 agonist max-min
CC(C)(C)OC(=O)N1CCc2c(sc(N)c2C#N)C1,-1,-4
CS(=O)(=O)Nc1cccc(NC(=O)Cc2csc(-n3cccc3)n2)c1,-2,-2
c1ccc(CN[C@@H]2C[C@H]3CCOC[C@@]3(c3ccccc3)C2)cc1,2,10
O=C(c1ccc(S(=O)(=O)NCc2ccco2)o1)N1CCOCC1,-7,-9
Cc1nc2ccc(Cl)cn2c(=O)c1NC(=O)c1ccc(-c2ccccc2)cc1,-4,-4
Cc1ccc2c(c1)C(c1ccc(O)cc1)(c1ccc(O)cc1)C(=O)N2C,7,6
CC(C)NS(=O)(=O)c1ccc(Cl)c(C(=O)NCc2ccc(F)cc2)c1Cl,-3,-3
CC(=O)Nc1ccc(NC(=O)COc2ccc(Br)cc2Cl)cc1,6,2
